ClpP mod – qHTS Assay for Activators of ClpP; purified B. subtilis ClpP, FRET peptide cleavage, 20 min; AID 651965, 2013; Potency, µM (titrated, usually from 57.5 µM), for the others: top-dose activity change, negative = active; hit rate 1.9% among 340,000; active = well fitted falling curve with a large enough effect; inconclusive = small, poorly fitted or top-dose-only effect; inactive = no such curve, though single readings can be large or run the other way; further: potency means the concentration at half of the fitted maximal effect; the source files actives as falling curves though it sought activators and does not explain the sign; nearly all actives have a fitted effect of over 65% in size; many hits overshoot -100%
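Buffer: 100 mM Tris/HCl pH8, 100 mM KCl, 0.05% low protease BSA, 2.5% glycerol, 0.01% Tween-20. ClpP 10 microg/mL final; 20 min RT; delta FRET normalized to ADEP and DMSO controls.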
TRPML1 inh – blocks the human TRPML1 channel | Q9GZU1 | TRPML1-inducible cells, Ca2+ dye fluorescence, FDSS; active compounds read low; inhibition of EC80 agonist-evoked calcium signal | activity change, negative = inhibition, % (no concentration beside the values) | hit rate 0.02% among 390,000; in the data active means activity change below about -50%; inconclusive means about -30% to -50%; inactive means above about -30%;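 further: stimulus is agonist 54-4 at its EC80 concentration; on the % scale 0 is the no-effect control and ±100 the full control effect; compound concentration not given in the record; the text of the record puts the active cut at -80%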
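TRPML1-DL cells, Tet-induced overnight (~16 h, 37 °C) at 1,500 cells/well, were loaded with Ca8 no-wash dye plus quencher for 45-90 min at room temperature. Compounds were pinned during FDSS kinetic reading; agonist 54-4 at EC80 (4 uM final) then added.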
Sfp inh – inhibitors of Bacillus subtilis Sfp phosphopantetheinyl transferase; Q9F4F7; Biochemical Sfp PPTase activity, qHTS; Potency, µM, for the others: max response, negative = inhibition, usual class: inhibitors; hit rate 3.5% among 310,000; AID 1490; active means well fitted inhibition curve with a large enough effect; inconclusive means small, poorly fitted or top-dose-only effect, or another doubt; inactive means no such curve, though single readings can be large or run the other way;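 further: the enzyme is Sfp with the accession as filed and its product quenches rhodamine fluorescence; potency means the concentration at half of the fitted maximal effect; 0% = enzyme reaction without inhibitor and -100% = no enzyme wells; top concentration of the series not given in the record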
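Step 1, compound plus 15 nM Sfp-PPTase, 15 min, room temperature. Step 2, add rhodamine-CoA (5 uM) and BHQ-2-YbbR (12.5 uM). Step 3, read 525/598 nm fluorescence at 0 and 30 min.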
TRPV1 PAM – human TRPV1 potentiation. Q8NER1. TRPV1-expressing cells, Fluo-8 calcium influx, capsaicin EC20 potentiation; host cell line not named in the record; control for the full effect not named in the record. potentiation, % at 8.33 µM. hit rate 0.02% among 320,000. AID 540277; active means potentiation above 80%; inconclusive means 30% to 80%; inactive means below 30%; further: 0% is about no effect
Target sequence (Q8NER1 whole entry, looked up): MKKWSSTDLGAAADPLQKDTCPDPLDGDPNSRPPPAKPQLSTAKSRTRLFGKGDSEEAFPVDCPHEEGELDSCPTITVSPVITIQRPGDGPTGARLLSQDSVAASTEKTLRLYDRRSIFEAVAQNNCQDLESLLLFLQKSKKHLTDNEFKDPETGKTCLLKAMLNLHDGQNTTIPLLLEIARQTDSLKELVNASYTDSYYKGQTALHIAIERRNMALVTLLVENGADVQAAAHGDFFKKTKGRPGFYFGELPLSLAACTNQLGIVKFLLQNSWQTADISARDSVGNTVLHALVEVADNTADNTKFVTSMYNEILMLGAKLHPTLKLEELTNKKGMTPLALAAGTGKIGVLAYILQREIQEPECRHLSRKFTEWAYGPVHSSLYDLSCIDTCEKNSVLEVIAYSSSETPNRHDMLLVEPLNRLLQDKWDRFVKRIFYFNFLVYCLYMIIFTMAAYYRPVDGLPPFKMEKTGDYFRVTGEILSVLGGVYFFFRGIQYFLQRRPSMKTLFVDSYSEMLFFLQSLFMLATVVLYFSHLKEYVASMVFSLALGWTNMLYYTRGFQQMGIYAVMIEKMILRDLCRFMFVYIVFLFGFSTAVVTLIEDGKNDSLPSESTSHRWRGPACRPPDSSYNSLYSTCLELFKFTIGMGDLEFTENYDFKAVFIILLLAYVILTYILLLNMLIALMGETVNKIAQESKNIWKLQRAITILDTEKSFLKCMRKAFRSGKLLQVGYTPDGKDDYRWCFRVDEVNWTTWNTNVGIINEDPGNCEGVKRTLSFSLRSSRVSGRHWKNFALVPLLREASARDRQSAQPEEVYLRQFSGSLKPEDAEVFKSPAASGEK
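Cells expressing TRPV1 were dye-loaded with Fluo-8 and read kinetically: 10 s baseline, 3 min after compound (agonist portion), then 2 min after EC20 capsaicin (allosteric enhancer portion). Calcium-bound dye fluorescence at 480/520 nm.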
TRPML1 agonist – activates the human TRPML1 channel | TRPML1-expressing cells, Ca2+ dye fluorescence, FDSS; host cell line not named in the record; reference of the full effect not given here | activation, % (test concentration not listed) | Q9GZU1 | hit rate 0.12% among 410,000; in the data active = activation above about 50%; inconclusive = about 30% to 50%; inactive = below about 30%; further: 0% is about no effect; the text of the record puts the active cut at 80%
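Agonist activity was taken from a 110 s kinetic Ca2+ dye read on the FDSS after pinning compounds onto TRPML1-DL cells. The cells were seeded at 1,500/well with Tet inducer, incubated about 16 h, then dye-loaded at room temperature.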
PINK1 expr mod – modulators of PINK1 expression; PINK1 immunofluorescence, high-content cytometry, 24 h; hit rate 0.2% among 410,000; Potency, µM (top dose mostly 76.6 µM), without a hit: at the top dose activation (PINK1 increase), most hits filed as activators; AID 624263; active = well fitted activation curve with a large enough effect; inconclusive = small, poorly fitted or top-dose-only effect; inactive = flat fitted curve, though single readings scatter; cell line not stated here;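 further: potency means the concentration at half of the fitted maximal effect; % of control where 0% means no effect; nearly all actives have a fitted effect of over 65% in size; a mitochondrial uncoupler was the plate control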
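PINK1 protein level read as immunofluorescence by microplate cytometer in a fixed, stained stable cell line after 24 h exposure to five compound concentrations, with CCCP as control.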
Menin MLL FP FL – displaces fluorescein MLL peptide from human menin. AID 1766. 290,000 tested, under 10 active. Fluorescence polarization, fluorescein-MLL peptide displacement from menin. FP activity change, % at 61.4 µM; inconclusive = falling polarisation curve, or a change in total fluorescence; inactive = total fluorescence flat and polarisation flat or rising; no compound was filed as active; the % refers to the polarisation; negative = inhibition;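 further: % of control where 0% means no effect; inhibitors lower the polarisation; unlabelled MLL peptide was the positive control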
Numbers without * were called inactive; ? = inconclusive; . = no result given; [ ] = dose if it differs, or a comment.

smiles	ClpP mod	Menin MLL FP FL	Sfp inh	TRPML1 inh	TRPML1 agonist	TRPV1 PAM	PINK1 expr mod
CC(=O)c1ccc(N2CCN(c3ncccn3)CC2)c([N+](=O)[O-])c1	.	-5.3	-11%	7	-0.6	-8	1.8%
Cn1c(CSc2nc3ccccc3s2)nnc1SCC(=O)NCCCN1CCOCC1	-0.3%	2.3	9%	14	-1.3	26	0.3%
C#CCNC(=O)C1=C[C@H](C2CCCCC2)[C@@H](CCCO)[C@H](OCC)O1	-4.1%	-6.1	-1%	1	-0.4	-7	2.9%
CCOC(=O)/C(C#N)=C1\CCCN1CC(N)=S	.	10	35µM*	6	-0.7	1	0.0%
CN1CCN(C2=NC3(CCCC3)C(C#N)C(=O)N2)CC1 (centres undefined)	-2.9%	1.6	21%	10	1.9	8	-2.3%
CCC(=O)Nc1c(-c2ccccc2Cl)c(=O)c2ccccc2n1CC	-23%	-0.4	15%	.	.	-2	0.7%
Cc1ccc2nc(C)c3c(c2c1)COC3	?	0.2	2%	-6	0.5	2	-1.7%
O=[N+]([O-])c1ccc(Oc2c(F)c(F)nc(N3CCCC3)c2F)cc1	-1.5%	-1.5	?	-7	-1.3	-20	2.5%
CC(C)(C)NC(=O)NC(=O)CSc1n[nH]c(-c2ccccc2Br)n1	.	-0.9	21%	10	-0.1	-18	0.5%
CCCCNS(=O)(=O)c1ccc(NC(=O)C2c3ccccc3Oc3ccccc32)cc1	-2.3%	3.1	24%	-13	0.9	7	4.8%
CC(C)c1cc(C(=O)OCC(=O)NC2CCS(=O)(=O)C2)c(O)c(C(C)C)c1 (centres undefined)	-20%	.	.	-2	-0.4	.	-0.3%
Cc1cccc(NC(=O)c2ccccc2OCC(=O)N2CCCC2)c1C	.	-1.0	8%	.	.	3	.
Clc1cccc2sc(N3CCCC3)nc12	-1.6%	3.0	14%	-10	1.1	-5	-0.5%
COc1cc(C)nc(NC(=O)NC(=O)c2ccc(C(F)(F)F)cc2)n1	-1.8%	-7.2	4%	1	0.2	2	0.7%
COc1ccc(-c2nc3ccc(Br)cn3c2Cc2cccc(Cl)c2)cc1OC	-8.3%	.	.	14	2.8	.	?
Fc1ccc(-c2nnsc2Sc2ccccn2)cc1	.	-1.8	12%	5	0.7	-11	0.7%
N#Cc1ccc(/C=C2\C=Cc3ccccc32)cc1	0.9%	.	.	.	-0.3	.	0.2%
CCCCn1c(SCC(=O)Nc2nccs2)nc2ccccc2c1=O	-3.8%	5.7	-13%	7	0.0	.	19%[38.3 µM]
COc1ccc2nc(-n3c(O)c(C4=c5ccccc5=NC4=O)[nH]c3=S)sc2c1	-3.2%	-1.8	50µM*	-10	0.2	2	5.2%
COc1ccc(NC(=O)C2(c3ccc(NC(=O)c4ccc(OC)cc4)cc3)CCCC2)cc1	28µM*	3.2	15%	24	0.3	?	1.8%
O=C(NC(c1ccccc1)c1ccc2ccccc2n1)C1CCN(Cc2ccc(Oc3ccccc3)cc2)CC1 (centres undefined)	-7.2%	.	.	.	-0.3	.	7.8%
CC1CCCCN1C(=O)COC(=O)Cc1c[nH]c2ccccc12 (centres undefined)	0.9%	.	.	26	0.5	.	1.7%
O=C(CC1NCCc2ccccc21)Nc1ccccc1 (centres undefined)	.	-0.4	1%	3	0.3	2	0.0%
COC(=O)c1sccc1Oc1ccc(F)cc1[N+](=O)[O-]	1.8%	-4.9	7%	-18	0.2	25	-0.9%
CS(=O)(=O)c1cnc(-c2ccccc2)nc1Oc1ccc(Cl)cc1	-0.2%	5.5	3%	2	-0.5	8	9.6%
Cc1ccc(CNc2ccc(O)cc2)cc1	-1.7%	3.8	?	0	0.0	-7	4.3%
Cn1c(-c2ccc(C(F)(F)F)cc2)cc2onc(-c3ccccc3)c2c1=O	-2.3%	.	.	38	-0.4	-17	-1.9%
O=C1CC(NNC(=O)c2cccc(F)c2)C(=O)N1 (centres undefined)	1.9%	2.2	4%	39	-0.3	9	3.5%
CCOC(=O)C1CCN(S(=O)(=O)c2ccc3c(ccn3C)c2)CC1	-2.1%	6.1	15%	-3	-0.8	-4	-1.8%
CCN(CC(=O)Nc1ccc2c(c1)OCCO2)c1ccc(S(=O)(=O)N2CCOCC2)cn1	-1.3%	-0.2	8%	4	-0.6	6	-1.3%
CCc1cccc(NC(=O)CN(c2ccc(C)cc2)S(=O)(=O)c2c(C)noc2C)c1	-1.6%	1.0	33%[activator]	11	-0.1	-5	11%
CCC(=O)NC(=S)Nc1ccc(NC(=O)c2cccc([N+](=O)[O-])c2C)cc1	1.1%	3.1	0%	17	-0.2	?	6.3%
CN1CCN(c2ccc([N+](=O)[O-])cc2NC(=O)c2cccs2)CC1	-3.1%	.	3%	6	0.0	-15	0.3%
Cn1ncc(Br)c1C(=O)NCc1cccs1	2.0%	2.0	7%	12	-0.6	-10	-2.2%[38.3 µM]
OCC1(CCOc2ccccc2)CCN(Cc2ccncc2)CC1	-3.9%	3.6	9%	.	.	?	0.8%
O=C(COc1ccccc1Br)NCCc1nc2ccccc2[nH]1	-0.6%	6.3	15%	3	-0.1	-6	5.9%
CCOc1ccc(NC(=O)CC2Nc3cccc4cccc(c34)NC2=O)cc1 (centres undefined)	-5.6%	.	.	-5	0.7	.	1.0%
CCC(C)N(C(=O)c1csnn1)C(C(=O)NCc1ccc(F)cc1)c1ccccc1 (centres undefined)	.	-0.5	19%	-2	-0.1	-7	2.7%
CS(=O)(=O)N1CCCC(C(=O)c2cccc(Cl)c2)C1 (centres undefined)	1.0%	3.2	-3%	13	-0.9	4	1.2%
Cc1ccc(CNC(=O)C2CCCCN2S(=O)(=O)c2ccc(F)cc2)cc1 (centres undefined)	-2.6%	.	.	42	1.7	.	-0.8%
CC(=O)C1=C(O)C(=O)N(c2ccc(Br)cc2)C1c1ccccc1[N+](=O)[O-] (centres undefined)	-3.8%	-3.1	?	9	1.1	-14	1.6%
COC(=O)C1=NNC(C(=O)OC)C1c1ccccc1 (centres undefined)	0.2%	.	.	-7	1.1	.	-4.7%
Cc1ccc(C(=O)Oc2coc(CSc3nnc(NC(=O)C4CC4)s3)cc2=O)cc1	-10.0%	7.2	6%	-9	0.2	-2	1.1%
Cc1ccc(C2=CC(c3ccccc3C)n3c(nc4ccccc43)N2)cc1 (centres undefined)	-4.0%	.	.	-8	9.1	.	5.8%
CCOC(=O)c1[nH]c(C)c(CCC(=O)NCc2ccc(OC(C)C)cc2)c1C	0.2%	.	.	3	1.3	.	10.0%
COc1ccc(C(c2nnnn2CC2CCCO2)N2CCC(C(N)=O)CC2)cc1 (centres undefined)	28µM*	2.6	26%	3	0.0	2	5.9%
C/C(CC(=O)Nc1cc(Cl)ccc1Cl)=N\NC(=O)COc1cccc(C)c1	.	0.4	5%	31	-0.6	-4	0.5%
O=C(Cn1c(=O)oc2cc(S(=O)(=O)NCc3ccccc3)ccc21)NCc1ccc(Cl)cc1	1.3%	.	.	-30	1.4	.	8.6%
Cn1cncc1C#Cc1ccc2cc(CCO)oc(=O)c2c1	4.1%	.	.	-3	-0.8	-1	-1.1%
CCOc1ccc(N2CC(NC(=O)c3cc4ccccc4o3)CC2=O)cc1 (centres undefined)	0.9%	.	.	-4	0.1	.	0.9%
NC(=O)c1cccc(Nc2nc(C(N)CCc3ccccc3)cs2)n1 (centres undefined)	-1.2%	.	.	.	-0.2	.	4.3%
O=C(C1CCN(C2CCN(CC3CC=CCC3)CC2)CC1)N1CCOCC1 (centres undefined)	-1.4%	0.5	14%	-6	0.4	-13	-0.4%
COc1cccc(CNC(=O)N2CCN(c3ccccc3)CC2)c1	.	0.0	20%	10	-0.7	-10	-0.2%
COc1ccc2c(CN3CCCC3)cc(=O)oc2c1	4.2%	.	.	4	-0.1	.	1.0%
Cc1ccc(-c2nc3cc(C(C)C)ccc3o2)cc1NC(=O)c1cccs1	?	.	.	-6	4.7	.	14%
O=C(C1=C[C@H](c2ccc3c(c2)OCO3)C[C@H](OCCCCO)O1)N1CCN(Cc2ccccc2)CC1	0.8%	8.3	-25%	-1	-0.3	7	-1.1%
O=C(/C=C/c1c(F)cccc1Cl)Nc1ccncc1	1.5%	9.2	-8%	20	-0.1	-19	-0.3%
Cc1nn(Cc2ccc(Cl)c(Cl)c2)c(C)c1NC(=O)c1cc(C2CC2)on1	-1.6%	-1.9	3%	-13	12	-3	0.9%
Cc1cccc(N2CCN(CCCNC(=O)c3ccc(NC(=O)C4=CSCCO4)cc3)CC2C)c1 (centres undefined)	.	.	15%	-2	0.1	-5	-1.2%
COc1ccc(OCCn2c(=O)sc3ccccc32)cc1	-5.9%	0.3	22%	-1	1.1	-15	2.5%
Cc1cccc(NC(=O)c2nc[nH]c2C(=O)N[C@@H](CC(C)C)C(=O)OC(C)(C)C)c1	-17%	2.8	27%	8	2.3	-13	6.3%
COc1ccccc1OCc1ccc(C(=O)Nc2cc(OC)c(OC)c(OC)c2)o1	0.8%	1.2	-8%	19	0.4	?	3.9%
CCOC(=O)c1cnn(-c2ccccc2)c1NC(=O)CN1CCCCC1	.	1.3	-2%	17	-0.4	2	1.6%
